Source: PubChem BioAssay (Southern Research Institute)
Mtb growth: Confirmatory growth inhibition assay against Mycobacterium tuberculosis H37Rv, potency (AID 1949). most inactive calls were filed without a number and no value below 0 was filed. one-dose inhibition, % at 10 µg/mL; IC50 in µg/mL for titrated hits. 100,000 tested, 1.6% active;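 active means confirmed in a dose series; inconclusive means about 50% or more but not retested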;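 further: bacteria grown 7 days with compound before Alamar blue readout; 0% = untreated bacteria and 100% = reference antibiotic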
Numbers without * were called inactive; i = inactive; u = inconclusive. An excerpt; the hit share may differ from the screen's.

The opening 17 entries (preview)
| SMILES | Mtb growth |
| --- | --- |
| Brc1ccc(-c2cn3c4c(sc3n2)CCCC4)cc1 | 0% |
| CCCCc1nc2ccccc2c(=O)n1-c1ccc(Cl)cc1 | 4% |
| Cc1ccc(NC(=S)NCc2ccc(Cl)cc2)c(OC(F)F)c1 | i |
| O=C(c1ccccc1[N+](=O)[O-])N1CCN(c2ccc(Cl)c(Cl)c2)CC1 | 7% |
| CCOC(=O)c1cccc(NC(=O)c2c(Cl)ccc(Cl)c2OC)c1 | i |
| COc1ccc(S(=O)(=O)N(C)CC(=O)NCC2CCCO2)cc1OC (centres undefined) | i |
| CCc1ccc(N(CC(=O)Nc2ccccc2C(=O)NCCOC)S(C)(=O)=O)cc1 | i |
| C=CCNCCOc1ccc(C(C)(C)c2ccccc2)cc1 | i |
| O=C(CCCc1ccccc1)Nc1nnc(C2CC2)s1 | i |
| O=C(Cn1nnc2ccccc21)c1ccc(Br)cc1 | i |
| O=C1CC(N2CCC(c3nc4ccccc4s3)CC2)C(=O)N1c1ccc(Cl)cc1 (centres undefined) | i |
| COc1ccc(C(=O)N2CCCC2)cc1S(=O)(=O)N1CCC(C)CC1 | i |
| O=C(c1cccc(Cl)c1)N1CCN(c2ccc(Cl)c(Cl)c2)CC1 | 9% |
| CC(=O)C1=NN(c2cccc(Cl)c2)C2(S1)SC(C(C)=O)=C(C)N2c1ccccc1 (centres undefined) | i |
| CCOc1cc(C(=O)NC(=S)Nc2ccccc2C(=O)O)cc(OCC)c1OCC | i |
| CC(=O)Oc1ccc(N(C(C)=O)S(=O)(=O)c2ccc(F)cc2C)cc1 | i |
| COc1cc(C#N)ccc1OCc1ccccc1 | i |

This part in full (from the top)
| SMILES | Mtb growth |
| --- | --- |
| Brc1ccc(-c2cn3c4c(sc3n2)CCCC4)cc1 | 0% |
| CCCCc1nc2ccccc2c(=O)n1-c1ccc(Cl)cc1 | 4% |
| Cc1ccc(NC(=S)NCc2ccc(Cl)cc2)c(OC(F)F)c1 | i |
| O=C(c1ccccc1[N+](=O)[O-])N1CCN(c2ccc(Cl)c(Cl)c2)CC1 | 7% |
| CCOC(=O)c1cccc(NC(=O)c2c(Cl)ccc(Cl)c2OC)c1 | i |
| COc1ccc(S(=O)(=O)N(C)CC(=O)NCC2CCCO2)cc1OC (centres undefined) | i |
| CCc1ccc(N(CC(=O)Nc2ccccc2C(=O)NCCOC)S(C)(=O)=O)cc1 | i |
| C=CCNCCOc1ccc(C(C)(C)c2ccccc2)cc1 | i |
| O=C(CCCc1ccccc1)Nc1nnc(C2CC2)s1 | i |
| O=C(Cn1nnc2ccccc21)c1ccc(Br)cc1 | i |
| O=C1CC(N2CCC(c3nc4ccccc4s3)CC2)C(=O)N1c1ccc(Cl)cc1 (centres undefined) | i |
| COc1ccc(C(=O)N2CCCC2)cc1S(=O)(=O)N1CCC(C)CC1 | i |
| O=C(c1cccc(Cl)c1)N1CCN(c2ccc(Cl)c(Cl)c2)CC1 | 9% |
| CC(=O)C1=NN(c2cccc(Cl)c2)C2(S1)SC(C(C)=O)=C(C)N2c1ccccc1 (centres undefined) | i |
| CCOc1cc(C(=O)NC(=S)Nc2ccccc2C(=O)O)cc(OCC)c1OCC | i |
| CC(=O)Oc1ccc(N(C(C)=O)S(=O)(=O)c2ccc(F)cc2C)cc1 | i |
| COc1cc(C#N)ccc1OCc1ccccc1 | i |
| Cc1cc(F)ccc1S(=O)(=O)Nc1ccc(I)cc1 | 22% |
| O=C(O)C1C2C=CC(O2)C1C(=O)Nc1ccc2c(c1)OCO2 (centres undefined) | i |
| Cn1c(Cc2cccc3ccccc23)nnc1SCC(=O)c1ccc(Cl)cc1 | 3% |
| CC(NC(=O)C(=O)Nc1ccc(F)cc1F)c1ccccc1 (centres undefined) | 1% |
| O=c1[nH]c(SCCOc2cccc3ccccc23)nc2ccccc12 | i |
| COCCNc1oc(COc2ccc(F)cc2)nc1C#N | i |
| O=C1CCCN1CCCNC(=S)NCC1CCCO1 (centres undefined) | i |
| CC(=O)c1c(C)nc(C)nc1NC(=O)Cc1ccccc1 | i |
| O=C(NC(=S)Nc1nc2ccc(F)cc2s1)c1ccco1 | i |
| COc1cc(NC(=S)NC(=O)c2ccc(C(C)(C)C)cc2)ccc1NC(=O)c1ccccc1Cl | 4% |
| CC(=O)Nc1ccccc1C(=O)OCc1cccc(Br)c1 | i |
| Cc1cc(C)nc(Nc2cccc(Cl)c2)n1 | i |
| Cc1cc([N+](=O)[O-])ccc1NC(=O)c1ccc(-c2ccccc2)cc1 | i |
| COC(=O)c1sc(NC(=S)Nc2ccc(Br)cc2Cl)c(C(=O)OC)c1C | i |
| O=C(N1CCOCC1)N1CCN(C(=O)N(c2ccccc2)c2ccccc2)CC1 | i |
| O=C(NCCCn1ccnc1)c1ccc(Cl)s1 | 1% |
| NC(=O)c1c(NC(=S)NC(=O)c2ccc(F)cc2)sc2c1CCCC2 | i |
| O=C(c1ccccc1F)N1CCN(S(=O)(=O)c2ccc(Cl)cc2)CC1 | i |
| O=C(NN1C(=O)C2C3C=CC(C4CC34)C2C1=O)c1ccccc1 (centres undefined) | i |
| COc1cccc(C2CC(c3cccc(C)c3)n3ncnc3N2)c1 (centres undefined) | i |
| O=C(CCN1C(=O)c2ccccc2C1=O)Oc1cccc2cccnc12 | 2.8µg/mL* |
| COc1ccc(C(=O)Nc2ccc(Nc3ccccc3)cc2)cc1OC | i |
| CCOc1cc(/C=C(\C#N)c2nc3ccccc3[nH]2)ccc1OCC(=O)OC | i |
| CCOc1ccc2nc(N/C(N)=N/C(=S)Nc3ccccc3)nc(C)c2c1 | i |
| CN1C(=O)C(C(=O)O)C2CC1(C)Oc1ccccc12 (centres undefined) | i |
| O=C(NS(=O)(=O)c1cccs1)c1ccccc1 | 1% |
| O=C(CNC(=O)c1ccccc1F)NC1CC1 | i |
| O=C(CSc1nnc(-c2cccs2)n1-c1ccccc1)NCc1cccs1 | 5% |
| Cc1ccc(S(=O)(=O)/N=C(/Nc2nc(C)cc(C)n2)N2CCc3ccccc32)cc1 | i |
| O=C1CC(N2CCN(c3ccccc3)CC2)C(=O)N1c1ccc([N+](=O)[O-])cc1 (centres undefined) | i |
| O=C(Nc1nc2ccccc2n1CCN1CCOCC1)c1ccc(COc2ccccc2Br)o1 | i |
| COc1ccc(NC(=O)c2cc(-c3ccccc3C)nc3ccccc23)c(OC)c1 | 6% |
| Cc1cc(NC(=O)c2cc(-c3ccccc3)on2)no1 | i |

(further entries)
| SMILES | Mtb growth |
| --- | --- |
| COc1ccc(S(=O)(=O)N2CCC(N3CCC(C)CC3)CC2)cc1 | i |
| Cn1c(=O)c2c(nc(SCC#N)n2C)n(C)c1=O | i |
| O=C(NC1CCCCC1)c1ccc(Cl)cc1[N+](=O)[O-] | i |
| Cc1cc(C)c(S(=O)(=O)N(C)CC(=O)N2CCN(c3cc(Cl)ccc3C)CC2)c(C)c1 | i |
| O=c1c2ccccc2ncn1CCOc1cccc(Br)c1 | i |
| Cc1ccc(C(=O)N2CCC(C(=O)N3CCN(c4ccccc4F)CC3)CC2)cc1 | i |
| CC(C)(C)c1ccc(OCCCNC2CCCC2)cc1 | i |
| Cc1cc(Br)cc(C)c1NC(=O)COc1ccc(C#N)cc1 | i |
| CCOC(=O)c1ccccc1NC(=O)Nc1ccc(OC)c(OC)c1 | i |
| N#Cc1c(NC(=O)CSc2nnc(-c3ccc(Cl)cc3)o2)sc2c1CCCC2 | i |

(list continues)
SMILES,Mtb growth
Cc1cc(C)c(NC(=S)NC(NC(=O)c2ccccc2)C(Cl)(Cl)Cl)c(C)c1 (centres undefined),7%
O=c1[nH]c(SCc2n[nH]c(=S)n2-c2ccccc2)nc2sc3c(c12)CCC3,i
Cc1cccc(CNC(=O)C(=O)Nc2ccccc2Cl)c1,6%
CCOc1ccc(S(=O)(=O)N(CC(=O)N2CCOCC2)c2ccc(F)cc2)cc1,i
COC(=O)CC1(c2ccc(Cl)cc2)C(=O)c2ccccc2C1=O,i
Cc1nn(-c2ccccc2)c2sc(C(=O)NC(=S)NCc3ccco3)cc12,1%
Cc1ccc(CC(=O)Nc2ccc(F)cc2F)cc1,0%
Cc1ccccc1-c1cc(C(=O)Nc2nncs2)c2ccccc2n1,i
COc1ccc(-c2c(C)nn(Cc3ccccc3)c2N)cc1,i
CCOc1cc(CNc2nnnn2C)cc(Br)c1OCc1ccccc1Cl,i
CCn1c2ccc(C)cc2c2nc3ccccc3nc21,1%
O=Cc1c(N2CCN(c3ccccc3F)CC2)nc2ccccn2c1=O,i
CCCc1ccc(C(C)NC(=O)c2ccc(C)s2)cc1 (centres undefined),i
COc1cc(C(=O)Nc2cc([N+](=O)[O-])ccc2C)ccc1OC(C)C,i
COc1ccccc1-n1c(SC)nc2ccc(Br)cc2c1=O,0%
CC(Sc1ccccc1)C(=O)Nc1ccc(S(=O)(=O)N2CCCCC2)cc1 (centres undefined),i
Cc1cccc(C(C)C)c1NC(=O)c1ccc(CSc2ccccc2)cc1,21%
OC1CCN(C(=S)Nc2ccc(F)cc2)CC1,i
COc1ccccc1Oc1ccc(S(=O)(=O)Nc2ccc3c(c2)OCCO3)cc1,2%
CCOC(=O)c1c(-c2ccc(F)cc2)csc1NC(=O)c1cccc([N+](=O)[O-])c1C,i
COc1ccc(OCCN2CCc3ccccc3C2)cc1,8%
COc1ccccc1CCNC(=O)c1ccc(COCC(F)(F)C(F)F)cc1,i
COC(=O)CN1C(=O)Nc2ccc(Cl)cc2C1c1ccccc1 (centres undefined),i
c1ccc2c(CN3CCCCC3)c[nH]c2c1,i
CN(C)Cc1c(O)ccc2c(=O)c(-c3ccc(Cl)cc3Cl)c(C(F)(F)F)oc12,i
O=S(=O)(Nc1cccnc1)c1cccc(Cl)c1,i
COc1cc(Br)c(C2C(C#N)=C(N)Oc3c2ccc2ccccc32)cc1OC (centres undefined),12%
N#Cc1c(-c2ccccc2)nc(N2CCCC2)[nH]c1=O,i
COc1ccc(CN2C(=O)C(O)(CC(=O)c3ccc4c(c3)CCCC4)c3ccccc32)cc1OC (centres undefined),i
O=C(Cc1ccccc1[N+](=O)[O-])NC1CC2CCC1C2 (centres undefined),i
COc1ccc(S(=O)(=O)Nc2ccc(C(C)=O)cc2)cc1,2%
CCC(C)c1ccc(OCC(=O)Nc2ccccc2[N+](=O)[O-])cc1 (centres undefined),i
CCc1cc2c(=O)c(-c3nc4ccccc4n3C)coc2c(CN2CCOCC2)c1O,1%
Cc1ccc(C(=O)O)cc1NC(=S)NC(=O)c1ccccc1,1%
CSc1nsc(SCc2ccc(F)cc2)n1,i
O=C(NNC(=O)c1ccc(OC2CCCC2)cc1)NC12CC3CC(CC(C3)C1)C2,i
COc1ccc(CNC(=O)c2ccc(C#N)cc2F)cc1,i
O=C(NN1C(=O)C2C3C=CC(C4CC34)C2C1=O)c1cccnc1 (centres undefined),i
COc1ccccc1C(=O)Nc1sc2c(c1C#N)CCCCC2,i
Cc1cc(O)c(C(C)C)cc1NC1=NS(=O)(=O)c2ccccc21,1%

A run of entries taken from the entries so far:
SMILES,Mtb growth
COc1ccccc1C(=O)Nc1sc2c(c1C#N)CCCCC2,i
Cc1cc(O)c(C(C)C)cc1NC1=NS(=O)(=O)c2ccccc21,1%

(cont.)
SMILES,Mtb growth
CCOc1ccc(C(=O)NC(=S)Nc2ccccc2OC(F)F)cc1Br,i
COC(=O)c1ccccc1NC(=O)CSc1nnc(C(NC(=O)c2cccc(C)c2)C(C)C)n1C (centres undefined),2%
Cc1cccc(CN(CC(=O)Nc2ccc(F)cc2)S(=O)(=O)c2ccc(Cl)cc2)c1,i
O=C(O)c1cn(-c2ccccc2)nc1-c1ccc(Br)cc1,6%
CC(=O)NC(=S)Nc1ccc(C)c(C)c1,i
Cc1cc(C)c(S(=O)(=O)NC2CC3CCC2C3)c(C)c1 (centres undefined),2%
O=S(=O)(Cc1ccccc1Cl)N1CCOCC1,i
Cc1ccc(C)c(OCC(=O)N2CCCCCC2)c1,4%
Clc1cccc(Cl)c1Cn1cnc2c(Oc3cccnc3)ncnc21,i
CCOc1ccccc1NS(=O)(=O)c1ccc(F)cc1,5%
CCc1cc(I)ccc1NC(=O)c1cccnc1,i
COc1ccc(C(=O)N2CCN(c3ccccc3F)CC2)cc1OC,3%
O=C(O)CCC(=O)Nc1cc(Cl)c(O)c(Cl)c1,i
O=C1Nc2ccc(S(=O)(=O)N(CCO)CCO)c3cccc1c23,0%
O=C(CSc1nc2ccccc2s1)c1cc2ccccc2oc1=O,4%
Cc1ccc(SCCC(=O)Nc2ccc(C(C)C)cc2)cc1,i
CC(=O)c1c(C)nn(CC(O)COc2ccc(C(=O)c3ccc(Cl)cc3)cc2)c1C (centres undefined),i
CC(=O)c1ccc(NC(=O)CC2Nc3ccccc3NC2=O)cc1 (centres undefined),i
Cn1ncc2c1ncn1nc(-c3ccncc3)nc21,i
CCOc1ccc(C(=O)Nc2ccccc2OCC)cc1Cl,i
O=C(c1ccccc1NS(=O)(=O)c1ccc(Cl)cc1)N1CCCC1,i
Cc1noc(C)c1C(=O)Nc1cccc(Br)c1,0%
CCOC(=O)c1c(NC(=O)CN(c2ccc(OCC)cc2)S(C)(=O)=O)sc2c1CCCC2,i
O=C(Nc1ccc(S(=O)(=O)N2CCCCCC2)cc1)C1COc2ccccc2O1 (centres undefined),0%
CN(CC(=O)NCCO)S(=O)(=O)c1ccc(Cl)cc1,i
Nc1ccc2oc(-c3cc(F)c(F)cc3Cl)nc2c1,18%
C=CCc1ccc(OCCOc2ccc([N+](=O)[O-])cc2)c(OC)c1,12%
O=C(CSc1nc(-c2ccc(F)cc2)cc(C(F)(F)F)n1)N1CCCC1,i
COc1cccc(OC(C)C(=O)NNC(=S)Nc2ccc(C)cc2C)c1 (centres undefined),i
S=c1[nH]nc(-c2cccs2)n1CCc1ccccc1,i
COc1ccc(OCC(O)CNC(=O)c2ccc([N+](=O)[O-])cc2)cc1 (centres undefined),11%
CC1CCN(S(=O)(=O)c2ccc(NC(=O)c3ccc(Br)o3)cc2)CC1,i
CCNS(=O)(=O)c1ccc(CCC(=O)N2CCOCC2)cc1,3%
O=C(Nc1cc(F)ccc1F)C1CCCO1 (centres undefined),i
COc1ccc2c(c1)c(=O)oc1c(C)c(OCC(=O)OC(C)C)ccc12,u
CCC(C(=O)Nc1nnc(-c2ccncc2)s1)c1ccccc1 (centres undefined),i
CCc1nc2ccc(I)cc2c(=O)n1-c1ccc([N+](=O)[O-])c(C(F)(F)F)c1,i
